Screening data as filed in PubChem.
MenB inh – Mtb MenB enzyme inhibition; inhibition, %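 (about 12 µg/mL by stock and volumes)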; P9WNP5; hit rate 0.43% among 100,000; MenB enzyme assay, absorbance read-out; some hits fall short of the stated cut;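 active = mean of two replicates above 30%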;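 also: 0% = no compound and 100% = wells with inactive enzyme; the first replicate is given; strong numbers were not always called active; inactives centre near -10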
Target sequence (P9WNP5 whole entry, looked up): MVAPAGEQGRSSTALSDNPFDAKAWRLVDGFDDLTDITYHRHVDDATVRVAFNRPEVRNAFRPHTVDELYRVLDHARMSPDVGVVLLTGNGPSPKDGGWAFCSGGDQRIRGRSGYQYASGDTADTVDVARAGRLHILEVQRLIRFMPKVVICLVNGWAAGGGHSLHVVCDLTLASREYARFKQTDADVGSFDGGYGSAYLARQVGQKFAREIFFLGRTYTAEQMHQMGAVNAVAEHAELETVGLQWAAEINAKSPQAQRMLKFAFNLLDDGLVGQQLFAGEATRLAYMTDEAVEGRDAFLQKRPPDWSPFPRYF
Mtb MbtI inh – blocks the Mycobacterium tuberculosis siderophore enzyme MbtI; P9WFX0; purified MbtI enzyme, fluorescence intensity read-out; inhibition, %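 (about 17 µg/mL by stock and volumes)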; hit rate 0.89% among 100,000; AID 493033;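 active = above 50% in both replicates, above 80% if mildly self-fluorescent; inactive = the rest, strongly fluorescent compounds included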;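 also: 0% = mean of negative and 100% = mean of positive controls; one replicate is shown; some compounds called inactive have numbers as strong as hits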
Target sequence (P9WFX0 whole entry, looked up): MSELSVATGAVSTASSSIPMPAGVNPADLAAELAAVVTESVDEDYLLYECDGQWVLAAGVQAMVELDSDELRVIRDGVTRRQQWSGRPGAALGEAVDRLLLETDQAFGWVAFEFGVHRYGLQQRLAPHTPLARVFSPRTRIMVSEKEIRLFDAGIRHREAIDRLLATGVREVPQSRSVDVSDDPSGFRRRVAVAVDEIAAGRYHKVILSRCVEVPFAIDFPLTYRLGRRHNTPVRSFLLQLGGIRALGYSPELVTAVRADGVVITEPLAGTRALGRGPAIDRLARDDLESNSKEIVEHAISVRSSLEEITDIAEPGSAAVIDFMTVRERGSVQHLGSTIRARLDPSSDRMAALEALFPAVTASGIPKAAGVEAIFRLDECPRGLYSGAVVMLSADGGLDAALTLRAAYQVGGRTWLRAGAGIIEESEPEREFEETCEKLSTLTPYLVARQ
Polio RdRp inh – inhibitors of poliovirus RNA polymerase binding and polymerization | AID 588519 | poliovirus polymerase elongation, fluorescence polarization; active compounds read low | % elongation, % (compound at 16.7 µg/mL) | hit rate 0.66% among 150,000; in the data active = % elongation below about 90%; also: some results filed as inactive read as strong as hits
Polio RdRp inh intensity – also measured in Polio RdRp inh; calls as there; % elongation; measured here: total intensity read-out; formula for this scale not given here;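 total fluorescence in place of polarization; lower means less elongation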
* marks the source's active call; other numbers are inactive results; / = no result given.

The first 5 records, to show the layout:
item | Structure | MenB inh | Mtb MbtI inh
1 | O=S(=O)(c1cccc(-c2nnc(SC(F)F)n2-c2ccccc2)c1)N1CCCCC1 | -22 | -10
2 | CCN(c1ccccc1)S(=O)(=O)c1ccc2[nH]cc(C(=O)N3CCOCC3)c(=O)c2c1 | -8 | -95
3 | O=C(Nn1cnnc1)c1cc(-c2ccccn2)nc2ccccc12 | -17 | -9
4 | CC(C)(C)N1CN=C(SCc2ccc(Cl)cc2)NC1 | -10 | -2
5 | COc1ccc(/C=C2/NC(=O)NC2=O)cc1 | -16 | 5

item | Polio RdRp inh | Polio RdRp inh intensity
1 | 102 | 105
2 | 100 | 96
3 | 103 | 108
4 | 102 | 107
5 | 100 | 100

The whole of this part, from the first entry:
item | Structure | MenB inh | Mtb MbtI inh
1 | O=S(=O)(c1cccc(-c2nnc(SC(F)F)n2-c2ccccc2)c1)N1CCCCC1 | -22 | -10
2 | CCN(c1ccccc1)S(=O)(=O)c1ccc2[nH]cc(C(=O)N3CCOCC3)c(=O)c2c1 | -8 | -95
3 | O=C(Nn1cnnc1)c1cc(-c2ccccn2)nc2ccccc12 | -17 | -9
4 | CC(C)(C)N1CN=C(SCc2ccc(Cl)cc2)NC1 | -10 | -2
5 | COc1ccc(/C=C2/NC(=O)NC2=O)cc1 | -16 | 5
6 | Cc1c(-c2ccccc2)nc2sc3c(c2c1N)CCCC3 | -10 | 18
7 | Cc1nn(CC(=O)N2CCCCC2)c(=O)c2ccccc12 | 6 | 3
8 | Nc1cc(-c2ccccc2)nn1CC1CCCCC1 | -21 | /
9 | CCn1c(=O)c(C(=O)CN(C)CC(=O)Nc2ccccc2Br)c(N)n(Cc2ccccc2)c1=O | -4 | -4
10 | CC(C)C(NC(=O)C(c1ccccc1)c1ccccc1)C(=O)N1CCOCC1 (configuration not stated) | -1 | /
11 | O=C(Nc1cccnc1)c1cc(-c2ccc(F)cc2)no1 | -16 | 30
12 | Cc1nc2cc(CC(=O)O)ccc2s1 | / | 6

item | Polio RdRp inh | Polio RdRp inh intensity
1 | 102 | 105
2 | 100 | 96
3 | 103 | 108
4 | 102 | 107
5 | 100 | 100
6 | 97 | 95
7 | 103 | 105
8 | 104 | 110
9 | 110 | 114
10 | 106 | 103
11 | 103 | 103
12 | 101 | 103

New compounds follow.
item | Structure | MenB inh | Mtb MbtI inh
13 | COC(=O)NCCSc1nnnn1-c1ccccc1 | 31* | 8
14 | CCCN1C(=O)C2(c3ccccc31)c1c(oc3cc(C)c(C)cc3c1=O)C(=O)N2CCO (configuration not stated) | 2 | -2
15 | O=S(c1nc2ccccc2[nH]1)C(F)(F)F (configuration not stated) | -11 | 6
16 | O=C1c2oc3ccccc3c(=O)c2C(c2cccs2)N1c1nccs1 (configuration not stated) | 7 | 0
17 | CCc1ccc(NC(=O)CCc2nc3ccccc3[nH]2)cc1 | 1 | -1
18 | CC(c1nnc(SCC(=O)N(CC#N)c2ccccc2)n1-c1ccc(F)cc1)N1CCCCC1 (configuration not stated) | 10 | 1
19 | CC1CCCCN1S(=O)(=O)CCNC(=O)c1ccccc1 (configuration not stated) | -19 | 6
20 | CS(=O)(=O)c1ncc(Cl)c(C(=O)Nc2sc3c(c2C(=O)NCC2CCCO2)CCC3)n1 (configuration not stated) | -7 | -1
21 | COc1ccccc1N1CCNC(C)C1=O (configuration not stated) | -19 | -4
22 | Cc1ccc(N2COc3ccc4c5c(c(=O)oc4c3C2)CCCC5)c(C)c1 | -8 | -257
23 | Oc1[nH]c2ccccc2c1C=NCc1ccc2c(c1)OCO2 | 7 | 2
24 | c1ccc2[nH]c(SCc3ccncc3)nc2c1 | -24 | 0

item | Polio RdRp inh | Polio RdRp inh intensity
13 | 101 | 101
14 | 101 | 103
15 | 99 | 115
16 | 100 | 103
17 | 104 | 100
18 | 100 | 101
19 | 98 | 74
20 | 98 | 105
21 | 104 | 102
22 | 102 | 104
23 | 100 | 102
24 | 106 | 100

Continued.
item | Structure | MenB inh | Mtb MbtI inh
25 | O=C(OCCO)c1cccc2c1-c1ccccc1C2=O | -20 | -14
26 | O=C(CSc1ccc2c(c1)OCCO2)N1CCC(c2ccccc2)=N1 | -19 | 15
27 | Fc1ccc(CNC(=S)NCCN2CCOCC2)cc1 | 1 | -2
28 | Cc1ccc(C(=O)NC(Nc2cc(C)on2)(C(F)(F)F)C(F)(F)F)cc1 | -30 | -11
29 | CS(=O)(=O)Nc1ccc(C2=NN(S(C)(=O)=O)C(c3ccc4c(c3)OCO4)C2)cc1 (configuration not stated) | 12 | 88
30 | Cc1ccc(N/N=C2/C(=O)C3(C)CCC2C3(C)C)cc1 (configuration not stated) | -4 | -6
31 | NC(N)=NS(=O)(=O)c1ccc(N=Cc2cccs2)cc1 | 3 | 4
32 | Cc1ccc(NC(=O)C(Cc2c[nH]c3ccccc23)NC(=O)OCc2ccccc2)cc1C (configuration not stated) | -2 | /
33 | O=C(Nc1ccc(Cl)cc1Cl)c1c(O)c2c(n(Cc3ccco3)c1=O)CCCC2 | -3 | /
34 | O=C1NC(Cc2c[nH]c3ccccc23)C(=O)N1CN1CCCCC1 (configuration not stated) | -11 | -6
35 | c1ccc2c(c1)oc1c(NCC3CCCCC3)ncnc12 | -11 | 36
36 | O=C(CCCC1CCCCC1)NCC1CCCO1 (configuration not stated) | -15 | -19

item | Polio RdRp inh | Polio RdRp inh intensity
25 | 102 | 95
26 | 103 | 109
27 | 100 | 102
28 | 104 | 105
29 | 105 | 126
30 | 97 | 103
31 | 100 | 96
32 | 102 | 108
33 | 103 | 110
34 | 104 | 101
35 | 99 | 108
36 | 100 | 102

Other compounds:
item | Structure | MenB inh | Mtb MbtI inh
37 | CC1(C)CC(/C=C/c2ccccc2)=Nc2ccccc2N1 | -43 | 7
38 | Cc1ccc(N=C(NN)c2ccc3ccccc3n2)cc1 | -43 | 21
39 | N=C1SC2CS(=O)(=O)CC2N1Cc1ccccc1Cl (configuration not stated) | -4 | -19
40 | CCN=C(NCC)SC1CC(=O)N(c2ccc(OCC)cc2)C1=O (configuration not stated) | 1 | /
41 | O=C(Nc1ccc2nsnc2c1NC(=O)c1ccc2nsnc2c1)c1ccc2nsnc2c1 | -2 | 13
42 | Cc1nn(Cc2ccccc2)c2sc(C(=O)O)cc12 | / | -4
43 | Cc1nnc2n(c1=O)N=C(N)CS2 | -50 | 12
44 | CC1CCCCC1NC(=O)CSc1nnc(-c2ccco2)n1Cc1ccccc1 (configuration not stated) | -3 | -11
45 | CCOc1ccc(/C=C2\SC(=Nc3cccc(C)c3C)NC2=O)cc1 | 1 | 16
46 | COc1ccc(NC(=O)c2ccc(N3C(=O)c4ccccc4C3=O)cc2)cc1 | -18 | 1
47 | CCOc1ccc(N2CC(c3nc4ccccc4n3CCCc3ccccc3)CC2=O)cc1 (configuration not stated) | -22 | -1
48 | Cc1cccc(N2CCN(CCNC(=O)c3cc4sccc4n3C)CC2)c1C | -2 | -7

item | Polio RdRp inh | Polio RdRp inh intensity
37 | 102 | 102
38 | 100 | 104
39 | 101 | 102
40 | 109 | 113
41 | 100 | 101
42 | 103 | 105
43 | 100 | 101
44 | 105 | 110
45 | 101 | 104
46 | 103 | 100
47 | 104 | 99
48 | 101 | 103

Continuation:
item | Structure | MenB inh | Mtb MbtI inh
49 | c1ccc(OCc2nc(-c3ccccc3)no2)cc1 | 5 | -6
50 | COc1ccccc1CN(C)CC(=O)NC(=O)NC1CCCCC1 | -22 | -15
51 | CN1CCCc2cc(/C=N/n3c(C(F)(F)F)n[nH]c3=S)ccc21 | -142 | 8
52 | CCOC(=O)/C=C1\SCC(=O)N1CC(=O)Nc1ccc(OC)c(Cl)c1 | 8 | 16
53 | Cc1ccc(-n2nc(C)c3nc(CCC(=O)O)c(=O)n(C)c32)cc1 | 6 | -2
54 | O=C(NCc1cccnc1)[C@H](Cc1ccccc1)N1Cc2ccccc2C1=O | -12 | 3
55 | CC(C)CN=C1NC(=O)C(CC(=O)NC2CC2)S1 (configuration not stated) | -17 | 4
56 | CCS(=O)(=O)C1=NN2C(=N)/C(=C\c3ccc(-c4ccccc4)o3)C(=O)N=C2S1 | -214 | 4
57 | S=c1[nH]nc(-c2c[nH]c3ccccc23)n1CC1CCCO1 (configuration not stated) | -19 | 41
58 | CC(=O)OCCNc1cc(Cl)c2noc3c2c1C(=O)c1ccccc1-3 | -12 | -11
59 | Cc1ccc(N=Cc2c(C)[nH]c3ccccc23)cc1C | / | 7
60 | NC(=O)c1cc(NC(=O)CCS(=O)(=O)c2ccccc2Cl)cc(C(N)=O)c1 | 1 | 4

item | Polio RdRp inh | Polio RdRp inh intensity
49 | 104 | 103
50 | 106 | 109
51 | 100 | 108
52 | 107 | 107
53 | 102 | 103
54 | 99 | 101
55 | 101 | 105
56 | 106 | 106
57 | 103 | 95
58 | 94 | 131
59 | 100 | 107
60 | 97 | 104

Taken from above.
Under Polio RdRp inh, entry 60 is entered as 97
Under MenB inh, entry 52 is entered as 8
Under MenB inh, entry 54 is entered as -12

Returning to the listing, repeating the 5 entries before the break.
item | Structure | MenB inh | Mtb MbtI inh
56 | CCS(=O)(=O)C1=NN2C(=N)/C(=C\c3ccc(-c4ccccc4)o3)C(=O)N=C2S1 | -214 | 4
57 | S=c1[nH]nc(-c2c[nH]c3ccccc23)n1CC1CCCO1 (configuration not stated) | -19 | 41
58 | CC(=O)OCCNc1cc(Cl)c2noc3c2c1C(=O)c1ccccc1-3 | -12 | -11
59 | Cc1ccc(N=Cc2c(C)[nH]c3ccccc23)cc1C | / | 7
60 | NC(=O)c1cc(NC(=O)CCS(=O)(=O)c2ccccc2Cl)cc(C(N)=O)c1 | 1 | 4
61 | COc1ccc(-c2nnc(NC(=O)c3ccc4c(c3)OCO4)s2)c(OC)c1 | -3 | 56
62 | CC1CCCC(C)N1C(=O)CSc1nccn1C (configuration not stated) | / | -6
63 | Cc1cnc(C(=O)OC(C)C(=O)N(C)c2ccccc2)cn1 (configuration not stated) | -32 | 3
64 | O=P(O)(CN1CCCCCC1)CN1CCCCCC1 | -17 | -22
65 | Clc1ccc(Oc2nc(Oc3ccc(Cl)cc3)nc(N3CCSCC3)n2)cc1 | -3 | -8
66 | Cc1nn(-c2ccccc2)c(Cl)c1C(=O)NCCSCc1ccco1 | 13 | 5
67 | COc1ccc(CCC(=O)NCc2cccs2)cc1 | -5 | -2
68 | COC(=O)CN1C(=O)COc2cc(S(=O)(=O)NC3CCCC3)ccc21 | -11 | -9
69 | Cc1ccc(C)c(C(=O)OCC(=O)NCc2ccco2)c1 | / | 21
70 | O=C(CSc1nc(-c2cccs2)cc(C(F)(F)F)n1)OCCCc1ccccc1 | -56 | 46
71 | CC(C)c1ccc(NC(=O)N2CCC(c3nc4ccccc4o3)CC2)cc1 | -7 | 3
72 | O=C(NCCc1ccccc1)c1cc2c(s1)CS(=O)(=O)C2 | -13 | 6

item | Polio RdRp inh | Polio RdRp inh intensity
56 | 106 | 106
57 | 103 | 95
58 | 94 | 131
59 | 100 | 107
60 | 97 | 104
61 | 101 | 101
62 | 98 | 98
63 | 99 | 105
64 | 96 | 107
65 | 106 | 111
66 | 100 | 104
67 | 111 | 111
68 | 102 | 107
69 | 99 | 101
70 | 100 | 106
71 | 101 | 104
72 | 103 | 102

(listing goes on)
item | Structure | MenB inh | Mtb MbtI inh
73 | C/C(=N\NC(=O)C1CC1)c1ccc(-n2ccnc2)cc1 | -4 | 9
74 | CCc1cccc(CC)c1N=C1SCCN1CCO | -6 | -6
75 | ClCc1cn(-c2ccccc2)nc1-c1ccccc1 | / | -39
76 | COC(=O)c1sc(-c2cccs2)cc1NS(=O)(=O)c1cn(C)cn1 | -24 | -3
77 | Cc1cc(C(=O)OCC(=O)Nc2ccccc2)c(C)n1-c1ccccc1 | / | -8
78 | CC1CCN(C(=O)COC(=O)c2ccc(I)cc2)CC1 | / | -4
79 | CN1C2CC(OC(=O)[C@H](CO)c3ccccc3)CC1C1OC12 (some centres not stated) | -6 | -8
80 | COc1ccc(-c2nc(CN3C(=O)CSc4nc(C)cc(C)c43)c(C)o2)cc1OC | 5 | 9
81 | CCCN1CCN(C(=O)c2cccc3c2C(=O)N(Cc2cccnc2)C3)CC1 | -8 | -6
82 | CN1CCN(C(=O)c2cc(Oc3c(F)c(F)c(F)c(F)c3F)cc(C(=O)N3CCN(C)CC3)c2)CC1 | -26 | 4
83 | CS(=O)(=O)c1ccccc1C(=O)N(Cc1cccs1)c1ccc2c(c1)OCCO2 | -12 | -8

item | Polio RdRp inh | Polio RdRp inh intensity
73 | 101 | 103
74 | 107 | 107
75 | 100 | 103
76 | 102 | 94
77 | 102 | 107
78 | 102 | 102
79 | 104 | 103
80 | 99 | 103
81 | 102 | 103
82 | 99 | 105
83 | 104 | 112
